# MgrA-DNA mod: S. aureus MgrA activity modulators, primary screen, biochemical, S. aureus Newman, fluorescence polarization; MgrA-DNA binding; inhibition, %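 (about 10 µg/mL by stock and volumes)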; 0.13% of 84,000 active; AID 602314, 2012;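 active = above 50% in either of two replicates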;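 note: 0% = protein plus DNA without compound and 100% = DNA alone without protein; higher means less MgrA bound to DNA so lower polarization; one replicate is shown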
# S aureus helic: inhibitors of S. aureus replicative helicase, primary screen, biochemical, fluorescence unwinding readout; replicative DNA helicase (DnaC/DnaB), Staphylococcus aureus; purified S. aureus helicase, fluorescence unwinding assay; about half of the hits fall short of the stated cut; inhibition, %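 (tested at about 80 µM)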; 0.05% of 120,000 active;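 active = both duplicates at 50% or more, or one of them with a favoured structure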;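 note: 0% = mean of negative control wells and 100% = mean of positive control wells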
# Active calls of the source: *; i = inactive; nt = no result given. Only part of the results is shown, so the mix of outcomes need not match the whole.
SMILES,MgrA-DNA mod,S aureus helic
O=C(Nn1cnnc1)c1ccccc1-c1ccccc1,1.9,7
Cc1[nH]c(=O)[nH]c(=O)c1S(=O)(=O)NCc1ccccn1,-2.1,12
NCCCc1nc2ccccc2[nH]1,-1.3,1
Cc1onc(-c2ccccc2Cl)c1C(=O)N(CCC#N)C1CCCCC1,1.9,nt
COC(=O)C1C(=O)C2=C(CC1C)NC(=O)CC2c1cccc(OC)c1 (centres undefined),3.7,10
CC(C)(C)c1cc(Cl)c(O)c(N=Cc2ccccc2O)c1,3.6,21
COc1ccc(N2CCN(C(=O)Cc3nn(C)c(=O)c4ccccc34)CC2)cc1,0.1,6
COC(=O)c1scc(S(=O)(=O)C(C)C)c1-n1cccc1,2.2,nt
Cc1ccc(-c2ccnc(-c3ccc(O)cc3)n2)cc1,0.6,nt
N#Cc1c(-n2cccc2)sc2c1CCCC2,0.3,8
CC(NC(=O)Nc1cccnc1)N1C(=O)C2C3C=CC(C3)C2C1=O (centres undefined),nt,10
CCCCN(C)S(=O)(=O)c1ccc2c(c1)CCN2C(=O)CC,0.6,11
CC(C)C(=O)Nc1nc(-c2ccccc2)c(-c2ccccc2)s1,nt,-15
c1ccc2c(-n3cccn3)cccc2c1,-0.6,11
N#Cc1ccc(CSc2ccccn2)c(Cl)c1,-0.7,5
O=C(COc1cccc(-n2cnnn2)c1)NC1CCCCC1,-2.5,9
COc1ccc(C(=O)CN2CCN(CCN3C(=O)c4cccc5cccc(c45)C3=O)CC2)cc1,-3.3,nt
CCC(=O)Nc1ccc(C(=O)COc2ccc(OC)cc2)cc1,nt,3
CC1=CC(C)C2COC(c3ccc4c(c3)OCO4)C1C2C (centres undefined),nt,14
O=C(OCc1cc(=O)n2c3c(sc2n1)CCCC3)C1CSC2(c3ccc(F)cc3)CCC(=O)N12 (centres undefined),nt,-6
N#CCSc1ncccn1,-0.4,nt
CCOCC(=O)Nc1cccc(-c2nc3cccnc3s2)c1,nt,-1
O=C(c1ccc2c(c1)N(Cc1ccc(F)cc1)C(=O)/C(=C/c1ccccc1)S2)N1CCCC1,0.0,3
Cc1ccccc1N1C(=O)c2ccccc2NC1(C)CC(=O)NCc1ccccc1 (centres undefined),-1.4,24
CCCN1CCN(CCCNC(=O)c2cc3c(-c4ccc(OC)c(OC)c4)nn(C)c3s2)CC1,nt,50*
Cc1cc2cc(CNC(=O)CC(C)C)ccc2n1C,nt,13
CCC(=O)Nc1ccc(C(=O)Cn2nc(C(=O)O)c3ccccc3c2=O)cc1,nt,-7
CN(C)c1ccc2c3c(ccc(N(C)C)c13)C(=O)OC2,1.2,13
CN(C)c1nc(N2CCOCC2)nc(N2CCOCC2)n1,nt,4
N#C/C=C(\Sc1nnc(C2CCCCC2)n1N)c1ccccc1,nt,-3
CCCS(=O)(=O)NCCc1cc2c(OC)ccc(OC)c2[nH]c1=O,nt,10
CN1C(=O)c2c(nc[nH]c2=O)C12CCCC2,nt,1
COc1nnc(OC)c2ccccc12,-0.3,nt
FC(F)(F)c1nc(NNC(=S)NCC2CCCO2)c2ccccc2n1 (centres undefined),nt,-3
CN1CCN(C(=O)c2ccc3c(c2)N(Cc2ccccc2F)C(=O)c2ccccc2S3=O)CC1 (centres undefined),nt,18
Cc1ccc(NC(=O)c2cc(-c3cccs3)on2)cc1,0.7,nt
Cc1ccc(NC(=O)CSC(C)C(=O)N2CCC(C)CC2)cc1 (centres undefined),nt,-3
Cn1cccc1C1CCCN1CC(=O)Nc1ccccc1C(=O)Nc1ccccc1 (centres undefined),nt,4
Cc1ccc(C)n1-c1ccc(C(=O)N(C)Cc2nc3ccccc3c(=O)[nH]2)cc1,nt,-13
CCCCn1c(=O)n(CC(=O)Nc2ccccc2F)c(=O)c2c1ncn2Cc1ccco1,nt,-1
CC(C)(Oc1ccc(Cl)cc1)C(=O)NC1CCCCNC1=O (centres undefined),-1.9,nt
CCOC(=O)c1nn(-c2ccc(OCC)cc2)cc1O,nt,-9
Cn1ccnc1SC(=O)N1c2ccccc2Sc2ccccc21,-1.1,2
C#CCCCCCCCCCCCC(O)CC(O)CO (centres undefined),-1.6,nt
Cc1cc(C)n(CCCNC(=O)c2ccc(NS(=O)(=O)c3cc(Cl)sc3Cl)cc2)n1,nt,-11
COc1ccc(C(O)(c2ccccc2)C2CC2)cc1 (centres undefined),0.0,nt
CCc1cccc(NC(=O)CSCCc2ccccn2)c1,nt,11
CNc1nsc(C(=O)c2ccc(OC)cc2)c1N,21,19
O=C(Cn1ncc2c3ccccc3n(Cc3ccccc3F)c2c1=O)NCc1cccs1,nt,6
Cc1ccc(C(=O)c2oc3ccccc3c2NC(=O)C(C)C)cc1,-1.1,15

# The results go on.
SMILES,MgrA-DNA mod,S aureus helic
O=C(CN1CCN(Cc2ccccc2)C1=O)NCCN1CCOCC1,nt,27
CC(=O)NCCC(=O)Nc1cccc(C#N)c1,nt,0
CC(=O)CC(=O)Nc1ccc(Cl)cc1,2.2,nt
Cc1ccc(Nc2nc(C)cs2)cc1,6.2,20
S=C(Nc1ccc(Cl)c(Cl)c1)NC1CCCC1,2.1,nt
Cc1ccc(O)c(C(=O)c2cnc3nc4ccccc4n3c2)c1,nt,-57
CS(=O)(=O)Cc1cccc(C(=O)NCc2ccco2)c1,nt,5
CN(Cc1nc(-c2ccccc2)no1)C(=O)CCN1C(=O)c2ccccc2C1=O,0.0,22
CC(C)CSc1nc2sccc2c(=O)n1-c1ccccc1,nt,4
CC(=O)N(CCS(=O)(=O)c1ccc(Cl)cc1)Cc1cccs1,-2.1,nt
Cc1ccc(S(=O)(=O)N2CCOCC2)cc1C(=O)OCC(=O)N(C)c1ccccc1,nt,-7
Cc1nc(-c2nc(-c3c(C(=O)N/N=C/c4ccc(Cl)cc4)noc3C)cs2)cs1,nt,27
Nc1nc2ccc(CC(=O)O)cc2s1,-7.8,10
FC(F)(F)Oc1ccc(-n2cccc2)cc1,-1.8,nt
CCOc1ccc(S(=O)(=O)NCC2CCCO2)c2ccccc12 (centres undefined),-0.5,-7
O=C(O)CC(NC(=O)Cc1ccccc1)c1ccccc1 (centres undefined),-0.1,11
COc1ccc(Cl)cc1NC(=O)CC(NCCc1ccccc1)C(=O)O (centres undefined),nt,-16
O=C1CCCC(O)=C1C(C1=C(O)CCCC1=O)c1ccccc1,2.9,17
Clc1ccc2c(c1)CN(C1CCCCC1)CO2,0.3,-5
Cc1ccc(C(=O)CSc2nnc(-c3cccc(C)c3)o2)cc1,0.1,-2
O=C(COC(=O)C1(c2ccccc2)CC1)N1CCN(c2ccc(F)cc2)CC1,nt,-3
COC(=O)C(C)Nc1n[nH]c(=S)[nH]c1=O (centres undefined),3.3,0
O=S(=O)(c1ccc2c3c(cccc13)CC2)N1CCSC1,nt,9
O=C(CC1Oc2ccccc2NC1=O)NCc1cccnc1 (centres undefined),nt,-7
CCOC(=O)c1csc(-c2cccs2)n1,-1.4,nt
Cc1cc(C)n(-c2ccc(C(=O)OCC(=O)Nc3ccccc3)cc2)n1,nt,-11
CN(C)c1ccc(N2C(=O)CC(NNc3ccccc3)C2=O)cc1 (centres undefined),nt,-1
CC1(C)C(=O)NC(=O)N1C(=O)c1ccccc1,nt,2
CCC(=O)n1nc(-c2ccccc2)nc1NCc1ccccc1,0.0,17
COc1ccc(C2N(C(=O)c3ccccc3)CCN2C(=O)c2ccc(C)cc2)cc1 (centres undefined),-0.2,-14
CCN1CCN(C(=O)c2cc[n+]([O-])cc2)CC1,-1.1,-17
CCCCNC(=O)c1cc2c(C)cc(C)cc2[nH]1,nt,-1
CCC(=O)Nc1c(C(N)=O)oc2ccccc12,nt,-12
CN(C)c1ccc2c(C(F)(F)F)cc(-c3ccccc3)nc2c1,nt,i
CC(/C=C1\SC(=S)N(CCCC(=O)Nc2cc(C)on2)C1=O)=C\c1ccccc1,nt,-59
NC(=O)/C=C/C(=O)Nc1ccc2c(c1)OCO2,5.7,12
CN(CC(=O)C(C#N)c1ccccc1)Cc1ccccc1 (centres undefined),4.0,-19
O=C(c1ccccc1)N(CCN1CCOCC1)C1(C(=O)Nc2ccccc2)CCCCC1,0.3,-2
Cc1nc(-c2ccccc2OC(F)(F)F)[nH]c(=O)c1Cl,1.8,nt
O=S(=O)(/C=C/c1ccccc1)N1CCN(CC(O)COCc2ccccc2)CC1 (centres undefined),nt,7
CC(=O)Nc1ccc(NC(=O)c2ccccc2N(C)S(C)(=O)=O)cc1,-0.7,5
Cc1cc(C)c2nc3s/c(=C/c4ccc(-c5ccccc5C(=O)O)o4)c(=O)n3c2c1,9.4,nt
CCCc1cc(=O)oc2cc(OCC(=O)N3CCc4ccccc43)ccc12,4.1,26
CC(=O)Nc1ccc(NC2=CC(=O)CC3(CCCCC3)C2)cc1,nt,-4
CC(NC(=O)CCCn1c(=O)oc2ccccc21)c1ccc(S(N)(=O)=O)cc1 (centres undefined),nt,5
Cc1ccc(Sc2ccc(NC(=O)Nc3ccc(OC(F)(F)F)cc3)cn2)cc1,-2.5,nt
COc1ccc(CNC(=O)C2=Cc3ccccc3OC2)cc1,nt,-8
CCOC(=O)C1=C(NC2CCN(Cc3ccccc3)CC2)C(=O)N(C(C)(C)C)C1,4.6,nt
O=C(C1CCN(c2nc3cccnc3s2)CC1)N1CCCCC1,nt,8
CCOc1ccc(N=C2SC(C(=O)Nc3ccc(F)cc3)CC(=O)N2Cc2ccc3c(c2)OCO3)cc1 (centres undefined),-1.3,nt

# Later entries
SMILES,MgrA-DNA mod,S aureus helic
O=c1c([N+](=O)[O-])c[nH]c2ccccc12,4.2,nt
C=CCNC1=C2C[C@@H](C)C[C@H](OC)[C@H](O)[C@@H](C)/C=C(\C)[C@H](OC(N)=O)[C@@H](OC)/C=C\C=C(/C)C(=O)NC(=CC1=O)C2=O,0.9,nt
O=C(OCn1nnc2ccccc2c1=O)C12CC3CC(CC(O)(C3)C1)C2,nt,5
CC(C)(C)NS(=O)(=O)Nc1ccccc1,2.0,-12
CCN(CC)c1c(CN2CCCC2)c(=O)oc2ccccc12,nt,4
Cc1nn(C)c(=O)c2noc(/C=C/c3ccc(Cl)c(Cl)c3)c12,-2.3,nt
CCCC(=O)Nc1nc2ccc(S(C)(=O)=O)cc2s1,0.2,5
O=C(O)COc1ccc(/C=C2\C(=O)NC(=S)N(c3ccc(F)cc3)C2=O)cc1Br,12,nt
COc1ccc(Cl)c(C(=O)OCC(=O)Nc2ccc(F)cc2)c1,-0.2,-1
COc1cccc(CNn2cn[nH]c2=S)c1OCc1ccccc1,0.8,9

# Compound profiles (already shown):
# `Cc1onc(-c2ccccc2Cl)c1C(=O)N(CCC#N)C1CCCCC1` in the list: MgrA-DNA mod = 1.9; S aureus helic = nt
# `Cc1cc(C)n(CCCNC(=O)c2ccc(NS(=O)(=O)c3cc(Cl)sc3Cl)cc2)n1` in the list: MgrA-DNA mod = nt; S aureus helic = -11

# Further results:
SMILES,MgrA-DNA mod,S aureus helic
CCCCOc1ccc(OCCCC)c2c1nc(-c1ccccc1NC)c(=O)n2C,-2.6,nt
CCCCN(C)S(=O)(=O)c1cc(Br)cc2c1N(C(=O)CC)CC2,nt,25
Cc1cccc(C)c1OCc1nnc2c3cnn(-c4ccccc4)c3ncn12,nt,12
Cc1ccc(NC2OC(C(O)CO)C(O)C2O)cc1C (centres undefined),-0.6,3
O=C(COC(=O)c1ccc2c(c1)OCCO2)c1ccccc1,nt,1
Cc1cc(I)ccc1NS(=O)(=O)c1cccs1,-0.4,-8
CCCCC(=O)/C=C/n1c(=S)oc2ccccc21,1.4,5
CCOc1cc(C2C(C(=O)OCCOC)=C(C)NC3=C2C(=O)CC(c2ccccc2)C3)cc(Br)c1O (centres undefined),-0.8,nt
CC1=Nc2ccc(C)cc2/C1=C\c1c(N)n2nc(S(=O)(=O)CC(C)C)sc2nc1=O,1.2,9
COc1ccccc1CNC(=O)Cn1ncc2c3ccccc3n(Cc3ccc(F)cc3)c2c1=O,nt,9
CNc1ncnc(Oc2cccc(C(F)(F)F)c2)c1[N+](=O)[O-],1.7,nt
COc1ccc(C(=O)NCc2cn3ccsc3n2)cc1OC,1.4,16
Cn1nc(Oc2ccc(-c3ccccc3)cc2)c(=O)n(C)c1=O,nt,8
Cc1cc2ccccn2c1C(=O)c1ccc(S(=O)(=O)N(C)C)cc1,-0.8,-6
O=C(CSc1nc2[nH]ncc2c(=O)[nH]1)N1CCCc2ccccc21,nt,7
Cc1ncc(-c2ccc3ccccc3c2)s1,-3.0,nt
O=S1(=O)CCC(NCC2CCCO2)C1 (centres undefined),nt,-21
CCCN(CCC)C(=O)c1sc2nc(-c3ccccc3)cn2c1C,0.2,13
Cc1cnc(C)c(N(C)C)n1,nt,23
O=C(c1ccccc1)N1CCCOC1c1ccccc1 (centres undefined),nt,-1
FC(F)(F)c1cnc(/N=C/N2CCOCC2)c(Cl)c1,-1.6,nt
CCOC(=O)c1c(C)n(-c2ccccc2)c2c1cc(OC(=O)c1cccc(F)c1)c1ccccc12,-1.0,nt

# Grouped by structure: the compounds so far containing an NH in an aromatic ring
SMILES,MgrA-DNA mod,S aureus helic
Cc1[nH]c(=O)[nH]c(=O)c1S(=O)(=O)NCc1ccccn1,-2.1,12
NCCCc1nc2ccccc2[nH]1,-1.3,1
CCCS(=O)(=O)NCCc1cc2c(OC)ccc(OC)c2[nH]c1=O,nt,10
CN1C(=O)c2c(nc[nH]c2=O)C12CCCC2,nt,1
Cc1ccc(C)n1-c1ccc(C(=O)N(C)Cc2nc3ccccc3c(=O)[nH]2)cc1,nt,-13
COC(=O)C(C)Nc1n[nH]c(=S)[nH]c1=O (centres undefined),3.3,0
CCCCNC(=O)c1cc2c(C)cc(C)cc2[nH]1,nt,-1
Cc1nc(-c2ccccc2OC(F)(F)F)[nH]c(=O)c1Cl,1.8,nt
O=c1c([N+](=O)[O-])c[nH]c2ccccc12,4.2,nt
COc1cccc(CNn2cn[nH]c2=S)c1OCc1ccccc1,0.8,9
O=C(CSc1nc2[nH]ncc2c(=O)[nH]1)N1CCCc2ccccc21,nt,7

# Screens: PubChem, ICCB-Longwood Screening Facility, Harvard Medical School
